NPYLR7 ag = agonists of mosquito NPYLR7 receptor, primary screen, cell-based, Aedes aegypti, calcium fluorescence, mosquito biting behavior. activation, % at 10 µM. Aedes aegypti neuropeptide Y-like receptor 7 (NPYLR7). HEK293T NPYLR7/Galpha15, GCaMP6s calcium fluorescence. AID 1259423, 2018. 0.15% of 270,000 active; in the data active = activation above about 40%;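 note: 0% = vehicle and 100% = reference agonist at the receptor; some compounds past the cut are filed as inactive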
NPYLR7 ag max-min = also measured in NPYLR7 ag; calls as there; activation, %; measured here: Max-Min RFU normalised activation; some inactives read as strong as hits;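 span of the calcium signal over five minutes; 0% = vehicle and 100% = native peptide agonist; compound fluorescence can raise it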
* = called active by the depositor; & = joins results of further samples.

SMILES	NPYLR7 ag	NPYLR7 ag max-min
CS(=O)(=O)N1CCC(C(=O)NCc2cc(-c3ccc4c(c3)OCCO4)on2)CC1	4	3
COCCNC(=O)C(NC(=O)c1cccs1)C1CCN(C(=O)Nc2cccc(Cl)c2)CC1 (stereo unspecified)	8	8
C=CCOc1c(OC)ccc2c1CN(CCOC)C(=O)CCN2	1	11
COc1ccc(-c2cc(C(F)(F)F)n3ncc(C(=O)NCCN4CCOCC4)c3n2)cc1OC	-4	0
CC1NC(=O)C2(CCCC2)NC1=O (stereo unspecified)	-5	-3
CN(Cc1ccc(F)cc1Cl)C(=O)c1cc(C(N)=O)cs1	5&3	1&-3
Fc1ccc(OCC2CCCN(Cc3nc(-c4ccccn4)no3)C2)cc1 (stereo unspecified)	-6	-7
CCCCCn1c(CC(C)(C)C)nc2ccccc21	-1	-3
Cc1cccn2c(=O)cc(OCC(=O)N3CCC(Cc4ccccc4)CC3)nc12	0	4
Cc1cc(-c2csc(N)n2)c(C)c(C)c1C	9	12

Two of the compounds above, with bars between the fields:
compound | NPYLR7 ag | NPYLR7 ag max-min
C=CCOc1c(OC)ccc2c1CN(CCOC)C(=O)CCN2 | 1 | 11
Fc1ccc(OCC2CCCN(Cc3nc(-c4ccccn4)no3)C2)cc1 (stereo unspecified) | -6 | -7

(next part)
SMILES	NPYLR7 ag	NPYLR7 ag max-min
O=C(NC1CC(=O)N(CCc2ccccc2)C1)c1cccc(-n2cnnc2)c1 (stereo unspecified)	6	5
CN(Cc1cnc2c(-c3ccccc3)cnn2c1)Cc1cccc2ncccc12	-5	-8
O=C(O)c1ccc(CN2C(=O)c3ccc(-c4nc5ccccc5c(=O)o4)cc3C2=O)cc1	-11	-17
CN1CCC(N2CCOC(CCNS(=O)(=O)C3CC3)C2)CC1 (stereo unspecified)	4	2
COc1ccc(-c2cccc(NS(=O)(=O)c3cc(C)c(C)cc3OC)c2)nn1	-6	-6
CC(C)(C)NC(=O)CN1CCN(CCSc2ccc(F)cc2)CC1	-3	-3
CC(C)CN1CCC(NC(=O)NC2CCOc3ccc(Br)cc32)CC1 (stereo unspecified)	0	1
C=c1c(C#N)c2[nH]c(N)c(C#N)c(C)c-2/c1=C/c1cn(C)c2ccccc12	15	9
COc1cc(C2=N/C(=C\c3ccc(OC(C)=O)cc3)C(=O)O2)cc(OC)c1OC	-4	-8
COc1ccccc1CN(C(=O)c1cccc(NC(C)=O)c1)C1CC1	1	4
C=CCn1cc(CN2CCC(c3ccnc(-c4cccc(O)c4)c3)C2)c(C)n1 (stereo unspecified)	1	-2
COc1ccc(CNC(=O)c2nn(-c3ccccc3C)c(=O)cc2OC)cc1	3	1
CCOc1ccc(-c2c(=O)n(OCc3ccc(Cl)cc3)c3ccccc3[n+]2[O-])c(OCC)c1	10	3
CN(C)c1nc(N)nc(CN2CCNC(=O)C2)n1	4	3
Cc1ccc2occ(CN3CC(=O)N(Cc4cnn(C)c4)CC(OCc4cccnc4)C3)c(=O)c2c1 (stereo unspecified)	19	7
Cc1ccccc1C1CC(C)N(CCCO)C1 (stereo unspecified)	8	10
COc1cccc(C(=O)C2CCCN(Cc3ccc4ncccc4c3)C2)c1 (stereo unspecified)	4	-2
CCCc1ccc(S(=O)(=O)NCc2nc3cccc(C)c3n2C)cc1	17	14
Nc1ccn2ncc([P+](c3ccccc3)(c3ccccc3)c3ccccc3)c2n1	0	28
COc1ccc(-c2nc3ccccn3c2NC(=O)c2cccc(Br)c2)cc1OC	-7	2
NC(=O)c1cc2c(ccc3ccccc32)oc1=Nc1cccc(F)c1	-4	-9
O=C(NC1CC(=O)N(Cc2ccccc2Cl)C1)c1ccsc1 (stereo unspecified)	7	7
CCc1nncn1CCNC(=O)N1CC(C)c2ccccc21 (stereo unspecified)	4	2
CCOc1ccc(-c2cccc(NS(=O)(=O)c3ccc(I)cc3)c2)nn1	19	24
OCCC1CN(Cc2nc3ccc(F)cc3[nH]2)CCN1Cc1ccc(F)cc1 (stereo unspecified)	2	-5
Cc1c(C#N)c(N=CN(C)C)c(C(=O)c2ccccc2)n1-c1ccc(Br)cc1	-2	4
COC(=O)c1ccc(CSc2nnc(-c3cc(-c4ccccc4)nc4ccccc34)o2)o1	-5	-9
CCn1cc(CN(Cc2ccoc2)CC(C)C)cn1	4	3
COc1nc(C)c(C(=O)NCc2cc(-c3ccco3)on2)s1	-11	-14
N#CCN(C(=O)C1CC12CCCC2)C1CCCC1 (stereo unspecified)	3	-1
O=C1CC(C(=O)N2CCN(S(=O)(=O)c3ccccc3F)CC2)c2ccccc2N1 (stereo unspecified)	-1	1
COc1cc2c(cc1OC)C(c1ccccc1Cl)N(C(=O)Cc1nc(-c3cccc(C(F)(F)F)c3)oc1C)CC2 (stereo unspecified)	30	16
CCOc1ccc(NC(=O)N2CCC3(CC2)NC(=O)c2cc(C)ccc2N3)cc1	-4	4
CCOc1cc(Nc2ccc(NC(=O)Nc3ccccc3OCC)cc2)nc(C)n1	8	1
Cc1nc(SCc2ccccc2)[nH]c(=O)c1CC(=O)N1CCN(S(C)(=O)=O)CC1	-5	-14
COCCN(Cc1ccc(OC)c(OS(=O)(=O)c2ccc(OC)cc2)c1)C(=O)c1cccs1	6	14
COC(=O)c1ccc(CNC2CC(=O)N(CC(C)(C)C)C2)cc1 (stereo unspecified)	3	-1
CCOc1coc(C(=O)Nc2ccc(Cl)cc2)cc1=O	11	6
CCOC(=O)CN1CCN(c2nc3c(c(=O)[nH]c(=O)n3C)n2CC)CC1	6	4
CCCn1c(SCC2CCCO2)n[nH]c1=O (stereo unspecified)	-3	-8
CCOc1ccc(CN(CCc2c[nH]c3ccccc23)Cc2nc(C(=O)O)co2)cc1	10	13
O=C(Nc1ccccn1)C1=Cc2cc(Br)ccc2OC1	11	10
CCn1c(C2CCN(C(=O)c3ccccc3C(=O)OC)CC2)nn(C)c1=O	30	19
CC(C)c1ccccc1OC1CC2CCC(C1)N2C(=O)c1ccc(CSCc2ccccc2Cl)cc1 (stereo unspecified)	5	-3
COC(=O)c1ccc(C(=O)OC)c(S(=O)(=O)Nc2cccc(F)c2)c1	1	5
O=C1CCC2(CCN1)CCN(C(=O)c1cc(=O)[nH]c3ccc(F)cc13)CC2	2	1
COc1ccc(S(=O)(=O)Oc2ccccc2CN(CCN(C)C)C(=O)c2ccccc2Cl)cc1	-2	8
Cc1ccc(S(=O)(=O)N(c2ccc(C)c(F)c2)C2CCNCC2)cc1	-3	-7
CN(C(=O)C(=O)N1CCC2(CCOCC2)CC1)c1ccccc1	7	6
COc1cc(OC)nc(Oc2ccccc2CNc2cc(C)on2)n1	3	3

Additional results
SMILES	NPYLR7 ag	NPYLR7 ag max-min
CC(C)(Cc1c[nH]c2ccccc12)NC(=O)c1ncoc1-c1ccccc1	-10	-15
CCC(C)OC(=O)C1=C(C)NC2=C(C(=O)CC(c3ccccc3)C2)C1c1ccc(O)cc1 (stereo unspecified)	-8	-17
CCCC1CCC(C(=O)Nc2nccs2)CC1 (stereo unspecified)	4	3
CN(Cc1nc(-c2ccccc2)no1)Cc1cn(C)nc1-c1ccc2c(c1)OCCO2	22	9
CCc1ccc(S(=O)(=O)NCCc2sc(-c3ccc(Cl)cc3)nc2C)s1	7	3
C#CCOc1coc(COC(=O)c2ccccc2)cc1=O	6	10
Cc1ccc(C2CC(C(F)(F)F)n3ncc(C(=O)N(C)CCC#N)c3N2)cc1 (stereo unspecified)	-2	-5
O=C(O)CCCn1c(SCc2cc(=O)n3ccccc3n2)nc2ccsc2c1=O	2	3
Cc1ccc(CN2CCC(CN(C)Cc3cccn3-c3nccs3)CC2)o1	17	4
Cc1cc(C)cc(C2(C(=O)N3CCN(c4cc(C)nc(C)n4)CC3)CC2)c1	3	4

One compound at a time, as listed above.
CN(Cc1nc(-c2ccccc2)no1)Cc1cn(C)nc1-c1ccc2c(c1)OCCO2 as listed: NPYLR7 ag: 22; NPYLR7 ag max-min: 9
C#CCOc1coc(COC(=O)c2ccccc2)cc1=O as listed: NPYLR7 ag: 6; NPYLR7 ag max-min: 10
O=C(O)CCCn1c(SCc2cc(=O)n3ccccc3n2)nc2ccsc2c1=O as listed: NPYLR7 ag: 2; NPYLR7 ag max-min: 3

Structures above containing a furan ring, fused or not, in the order listed:
SMILES	NPYLR7 ag	NPYLR7 ag max-min
COC(=O)c1ccc(CSc2nnc(-c3cc(-c4ccccc4)nc4ccccc34)o2)o1	-5	-9
CCn1cc(CN(Cc2ccoc2)CC(C)C)cn1	4	3
COc1nc(C)c(C(=O)NCc2cc(-c3ccco3)on2)s1	-11	-14
Cc1ccc(CN2CCC(CN(C)Cc3cccn3-c3nccs3)CC2)o1	17	4

Next records
SMILES	NPYLR7 ag	NPYLR7 ag max-min
Cc1nc(C(=O)N2CCCN(CC3CC3)C(C(C)C)C2)cs1 (stereo unspecified)	9	7
O=C(OCc1nc(C(=O)N2CCC(n3c(=O)[nH]c4ccccc43)CC2)cs1)c1ccccc1	-8	-15
Cc1ccc(C(O)c2c(N)sc3c2CCCC3)cc1 (stereo unspecified)	5	1
Fc1cccc(C2c3cccn3CCCN2Cc2ccoc2)c1 (stereo unspecified)	11	10
N#Cc1cccc(NC(=O)N2CCC3(CC2)NCCc2c3[nH]c3ccc(Cl)cc23)c1	9	11
O=C(NC1CC1)C(c1ccccc1)N1CCCC1c1cccs1 (stereo unspecified)	12	5
OCCN(N=CC1=C(c2ccccc2)Oc2ccccc2O1)C(=S)Nc1ccccc1	-3	-6
CCCCCCCCCCCC(=O)N1CCSC1c1ccccc1C(F)(F)F (stereo unspecified)	20	16
Cc1ccc(F)cc1NC(=O)C1CC(=O)N(CC(C)C)C1 (stereo unspecified)	-24	-26
CSc1ccc(C(=O)CCC(=O)NCC2COc3ccccc3O2)cc1 (stereo unspecified)	-8	-12
Cc1cc(C(=O)CCC(=O)NC2CCC3(CC2)OCCO3)c(C)s1	11	6
O=C(Nc1ccc(F)cc1F)c1cnn2c1NC(c1cccs1)CC2C(F)(F)F (stereo unspecified)	-9	-12
CC1(C(=O)Nc2ccncc2)CCN1C(=O)Cc1ccc(Cl)cc1Cl (stereo unspecified)	8	7
CCCCCCC(=O)Nc1c(-c2cc(C)cc(C)c2)nc2ccccn12	0	6
Cc1cc(C)cc(N2CCN(C(=O)c3occc3C)CC2=O)c1	4	3
NC(=O)CCn1c(COc2ccc(Cl)cc2)nc2ccccc21	9	5
CCc1ccc(CNC(=O)Nc2nnc(C(C)(C)C)s2)nc1	9	7
COc1ccc(-c2ccnc3[nH]n(-c4ccccc4)c(=O)c23)cc1OC	-10	-14
CCCN(Cc1ccncc1)C(=O)c1nc[nH]c1C	0	23
Cc1nn(S(=O)(=O)c2ccccc2[N+](=O)[O-])c(C)c1Sc1ccc([N+](=O)[O-])cc1	3	8
CCC(Oc1ccccc1)C(=O)NNC(=O)c1ccc(O)cc1 (stereo unspecified)	4	2
CC1CCCC2(C1)OCC(C(=O)NC1CC1)N2C(=O)C1CCCC1 (stereo unspecified)	2	2
CN1CCN(C(=O)c2ccccc2N2CCC(NC(=O)c3ccc(Cl)cc3Cl)CC2)CC1	9	12
COC(=O)c1cccc(OC(C)C(=O)N(C)c2ccccc2)c1 (stereo unspecified)	5	-1
Cc1cc(NC(=O)c2ccccc2F)n(-c2nc3c(F)cccc3s2)n1	-8	-13
CCOC(=O)N1CCN(C2CCCN(C(=O)/C=C/c3cccs3)C2)CC1 (stereo unspecified)	12	8
O=C(c1cnn(CC(F)(F)F)c1-c1ccccc1)N1CCCC1	16	25
NS(=O)(=O)c1ccc(CNc2ccc3ncc(-c4ccc(Oc5ccccc5)cc4)n3n2)cc1	-1	-4
COc1cccc(C(=O)Oc2coc(CSc3nc(C)cs3)cc2=O)c1	-4	-2
Cn1cc(C(=O)N2CCN(S(=O)(=O)c3ccccc3C#N)CC2)c2ccccc21	8	7
O=C(NC1CC1)c1csc(COc2ccc(F)cc2)n1	24	21
COCc1nc(N(C)CCc2scnc2C)c2cnn(C)c2n1	19	16
Cc1cc(NC(=O)CCCNC(=O)c2ccsc2)n(C(C)(C)C)n1	-8	-9
CCOC(=O)c1c(C)[nH]c(C(=O)N(CCOC)Cc2ccccc2)c1C	-12	-12
O=C(CC1C=CCC1)NCC1(NC(=O)CC2C=CCC2)CCOCC1 (stereo unspecified)	4	-1
Cc1ccsc1C(=O)Nc1ccc(S(=O)(=O)N(C)C)cc1	5	2
CC1=C(C(=O)N2CCC(CCC(=O)Nc3ccc(F)c(Cl)c3)CC2)OCCO1	1	-2
COc1ccc(NC(=O)NCCn2nc(-c3ccc(OC)c(OC)c3)ccc2=O)cc1	-4	-3
COc1ccc(-c2cc(C(=O)N3CCN(C(c4ccccc4)c4ccccc4)CC3)c(C)n2-c2ccc(F)cc2F)cc1	-4	5
COc1cc(/C=C/CN2CCCC(C(=O)c3cccc(Cl)c3)C2)ccc1O (stereo unspecified)	-1	-2
CCCC(=O)OCOC(=O)C1=C(C)NC(C)=C(C(=O)OC)C1c1cccc(Cl)c1Cl (stereo unspecified)	9	9
COC(=O)c1ccc(CSc2nc3c(c(=O)n2-c2ccc(C)cc2)SCC3)o1	2	2
CS(=O)(=O)Nc1ccc2c(c1)C(=O)NC2=O	0	1
Cn1c(-c2ccccn2)[n+](C)c2ccccc21	5	3
CCN1C(=O)CC(CC(=O)N(CC2CCC2)CC2CCCO2)(c2cccc(C(F)(F)F)c2)C1=O (stereo unspecified)	-12	-10

Screens (PubChem BioAssay)

Not all compounds are listed, so the mix of outcomes need not match the whole.
